Rango dissoc inh: inhibition of RanGTP-driven Rango-importin beta dissociation | O95149+P62826 | Biochemical FRET Rango-importin beta, RanGTP-induced dissociation | Potency, µM (doses to about 46.1 µM), inactives show at the top dose activity change, negative = inhibition | actives 0.071% (n = 340,000); active means falling FRET ratio curve, often poorly fitted, with flat reads before Ran was added; inconclusive means other falling curves, or compound fluorescence or quenching; inactive means flat or rising ratio curve;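 also: potency is read from the fitted curve at half-maximal effect; % of control where 0% means no effect; nearly all actives have a fitted effect of over 45% in size; -100% = wells without RanGTP and RCC1; the record marks most hits as doubtful in a second field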
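Compounds preincubate 5 min with complex of recombinant Rango and importin beta in PBS with 1 mM DTT. Ran (0.6 uM) loaded with 2 mM GTP plus 0.2 uM RCC1 starts dissociation; FRET is recorded 45 min later.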
Rango complex inh: Rango-importin beta binding inhibition; Q14974; Rango CFP/YFP FRET sensor + importin beta, 45 min; Potency, µM (titrated, usually from 92.2 µM), without a hit: at the highest dose inhibition of complex formation; actives 0.031% (n = 340,000); AID 540263; active = rising FRET ratio curve, often small or poorly fitted; inconclusive = mostly compound fluorescence or quenching in the first reads; inactive = flat curves in all reads;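 also: potency is read from the fitted curve at half-maximal effect; 0% = DMSO wells and 100% = buffer wells lacking importin beta; nearly all actives have a fitted effect of over 15% in size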
Target sequence (Q14974 whole entry, looked up): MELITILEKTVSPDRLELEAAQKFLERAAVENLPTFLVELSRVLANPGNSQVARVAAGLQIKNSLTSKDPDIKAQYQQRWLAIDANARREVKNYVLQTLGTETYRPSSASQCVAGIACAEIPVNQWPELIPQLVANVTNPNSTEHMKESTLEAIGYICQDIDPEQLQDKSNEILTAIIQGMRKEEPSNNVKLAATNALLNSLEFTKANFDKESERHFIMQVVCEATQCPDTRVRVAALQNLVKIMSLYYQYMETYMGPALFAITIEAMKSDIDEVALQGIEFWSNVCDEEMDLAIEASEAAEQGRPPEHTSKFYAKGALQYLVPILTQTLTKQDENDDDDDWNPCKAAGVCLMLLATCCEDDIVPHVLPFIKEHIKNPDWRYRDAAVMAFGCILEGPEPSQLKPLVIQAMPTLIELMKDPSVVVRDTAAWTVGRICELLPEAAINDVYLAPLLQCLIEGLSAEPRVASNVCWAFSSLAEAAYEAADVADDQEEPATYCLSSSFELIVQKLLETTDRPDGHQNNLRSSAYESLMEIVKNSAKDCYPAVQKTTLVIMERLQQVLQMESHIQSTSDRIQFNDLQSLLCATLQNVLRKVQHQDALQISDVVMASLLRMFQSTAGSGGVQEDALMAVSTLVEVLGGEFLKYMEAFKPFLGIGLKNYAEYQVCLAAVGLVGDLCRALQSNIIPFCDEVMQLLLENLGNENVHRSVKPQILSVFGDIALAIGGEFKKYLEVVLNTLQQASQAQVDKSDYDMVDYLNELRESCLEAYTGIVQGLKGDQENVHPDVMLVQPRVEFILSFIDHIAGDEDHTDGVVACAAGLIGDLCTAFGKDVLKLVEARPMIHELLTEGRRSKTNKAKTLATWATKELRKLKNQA
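FRET biosensor (snurportin 1 IBB flanked by EYFP and cerulean), 50 nM, with compound 5 min, then 0.125 microM importin beta in PBS, 1 mM DTT, 0.02% Tween-20, 0.1% BSA. CFP/YFP ratio read after 45 min at room temperature; pre-read flags interference.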
GLA inh pH 4.5: alpha-galactosidase A (human) inhibition, pH 4.5; P06280; purified enzyme, 4-MU-alpha-Gal fluorescence, pH 4.5; activity change, negative = inhibition, % at 105 µM; 230,000 tested, under 10 active; AID 1467; inconclusive = small, poorly fitted or top-dose-only inhibition, or a rising curve; inactive = flat fitted curve, though single readings scatter; no compound was filed as active;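 also: 0% = full activity with enzyme and -100% = basal without enzyme; dose as in the result columns while the protocol names 77 µM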
miR-21 FLuc: miR-21 reporter, rising signal. HeLa miR-21 FLuc reporter, luciferase, 48 h. Potency, µM (highest dose often 38.3 µM), for the others: at the top dose reporter change, positive = more light. 340,000 tested, under 10 active; active = well fitted rising curve with a large enough effect; inconclusive = small, poorly fitted or top-dose-only effect; inactive = no such curve, though single readings can be large or run the other way;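 also: % of control where 0% means no effect; miR-21 action dims this reporter so a rising signal means less miR-21 action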
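HeLa cells endogenously expressing miR-21, stably carrying CMV-driven firefly luciferase with a downstream miR-21 binding site, 2000 cells/well. Titrations up to approximately 40 uM, 48 hours; luciferase luminescence read.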
Starred values were filed as active, the others as inactive; ? = inconclusive; / = no result given; & = joins results of further samples. Not all compounds are listed (hit frequency here may not be typical).

mol	Rango dissoc inh	Rango complex inh	GLA inh pH 4.5	miR-21 FLuc
S=C(Nc1ccc2nc(-c3ccccn3)c(-c3ccccn3)nc2c1)N1CCOCC1	?	?	2	-2%
O=C(O)CCC(=O)N1CCc2cc(S(=O)(=O)N(CCc3ccccc3)Cc3ccccc3)ccc21	-4%	0.5%	3	-8%
Cc1ccc(N(CC(=O)NCc2ccc3c(c2)OCO3)S(C)(=O)=O)cc1	-12%	4.7%	9	-34%
Cn1nc(C(=O)N2CCN(S(=O)(=O)/C=C/c3ccccc3)CC2)c2ccccc2c1=O	2%	1.4%	1	-7%
Cc1ccc(C(=O)Nc2cccc(C(=O)NCc3ccccc3)c2)cc1	-6%	-0.1%	-1	2%
COCCn1c(SCC(=O)Nc2nc(C)c(Cl)cc2Cl)nc2ccccc21	5%	4.1%	-5	-4%
COc1ccc(-c2csc(NC(=O)C3CC(=O)N(Cc4ccccc4)C3)n2)cc1OC (stereo not drawn)	2%	1.8%	/	22%
CCOC(=O)c1ccc(S(=O)(=O)N2CCC(C(=O)O)CC2)cc1	21%	-5.8%	-12	-2%
c1ccc(CCNc2ncnc3nc[nH]c23)cc1	-7%	2.3%	-3	-21%
COc1ccccc1Nc1ccc(NS(=O)(=O)c2ccc(C(C)=O)cc2)cc1	5%	-3.8%	/	-5%
Cc1ccc(/C=C/c2onc(C)c2S(=O)(=O)N2CCC(C(=O)N3CCN(C)CC3)CC2)cc1	10%	?	/	-16%
CCCCCCSc1ccc([C@H]2N[C@@](C)(C(=O)OC)[C@H]3C(=O)N(C)C(=O)[C@@H]23)cc1	-6%	1.1%	/	/
ClCc1csc(-c2ccccc2Cl)n1	3%	1.7%	1	-13%
O=S(=O)(Nc1cccc(S(=O)(=O)N2CCCC2)c1)c1cccc(Br)c1	8%	4.4%	/	/
CCOc1ccc(NC(=O)N(CCN2CCOCC2)Cc2ccc3c(c2)CCCN3CC)cc1	30%	?	8	-17%
CC(C)C(C)(C#N)NC(=O)CSc1ncnc2sc(-c3ccccc3)cc12 (stereo not drawn)	-10%	-2.4%	3	0%
CN(CC(=O)NCCN1CCOCC1)S(=O)(=O)c1ccc(Cl)cc1	-1%	-0.3%	/	/
O=C(NCCN1CCOCC1)c1cccc2c1C(=O)c1ccc(N3CCCC3)cc1S2(=O)=O	?	?	/	/
Cc1ccc(NC2=NC(c3ccccc3)n3c(nc(C)cc3=O)N2)cc1 (stereo not drawn)	8%	0.0%	-1	1%
COc1cc(C(=S)N2CCOCC2)ccc1OS(=O)(=O)c1ccc(Cl)cc1	4%	1.2%	/	6%
OC(CCN1CCCCC1)(c1ccccc1)c1ccccc1	-11%	0.6%	-3&-3&5	-19%
Cc1csc(NC(=O)c2ccccc2C(=O)O)n1	-4%	-0.3%	4	-5%
O=C(O)[C@H](Cc1ccccc1)N1C(=O)c2ccncc2C1=O	1%	1.3%	2	-5%
COc1ccccc1Nc1nc(N)nc(CSc2nc(C)cc(C)n2)n1	2%	-0.7%	-2	-47%
O=C1C(O)=CC(=C(c2ccccc2)c2ccccc2)c2ccccc21	7%	0.1%	/	/
CCN(C(=O)CSc1nnnn1C)C1CCCCC1	-3%	-1.0%	/	/
COc1ccc(NC(=S)N2CCC(Cc3ccccc3)CC2)cc1OC	25%	6.0%	/	-8%
Cc1cc(F)ccc1S(=O)(=O)Nc1ccc(C(=O)N(C)Cc2ccco2)cc1	13%	-0.1%	/	/
O=C(NCc1cccc(C(F)(F)F)c1)C1CC(c2c(Cl)cccc2Cl)=NO1 (stereo not drawn)	-13%	0.1%	-1	16%
CCOC(=O)CSc1ccc(S(=O)(=O)N(CC)CC)cc1[N+](=O)[O-]	-10%	0.5%	-21	-1%
O=C(Cn1c(=O)c(=O)n(Cc2ccccc2)c2ccc(Cl)cc21)Nc1cccc(F)c1	-4%	?	3	-9%
COCCn1c(SCC(=O)c2ccc(F)cc2)nnc1C(C)C	-17%	-2.3%	4	1%

Compounds from the list above that contain a COOH group:
mol	Rango dissoc inh	Rango complex inh	GLA inh pH 4.5	miR-21 FLuc
O=C(O)CCC(=O)N1CCc2cc(S(=O)(=O)N(CCc3ccccc3)Cc3ccccc3)ccc21	-4%	0.5%	3	-8%
CCOC(=O)c1ccc(S(=O)(=O)N2CCC(C(=O)O)CC2)cc1	21%	-5.8%	-12	-2%
Cc1csc(NC(=O)c2ccccc2C(=O)O)n1	-4%	-0.3%	4	-5%
O=C(O)[C@H](Cc1ccccc1)N1C(=O)c2ccncc2C1=O	1%	1.3%	2	-5%

Next part:
mol	Rango dissoc inh	Rango complex inh	GLA inh pH 4.5	miR-21 FLuc
COc1ccnc(Oc2cc(Cl)cc(Cl)c2)c1C#N	0%	-3.4%	1	-9%
NS(=O)(=O)c1cc(C(=O)O)c(NCc2ccco2)cc1Cl	-21%	3.7%	1&1&-6	/
O=C(Nc1cnccc1C(F)(F)F)NC1CCCCC1	?	0.2%	-27	1%
Nc1[nH]n(-c2ccccc2)c(=O)c1N=Nc1ccc2c(c1)OCCO2	-6%	4.7%	-7	-7%
CC12CCC(=O)N1C(C(=O)Nc1nc(-c3ccc(F)c(F)c3)cs1)CS2 (stereo not drawn)	0%	-0.2%	/	/
CC(C)(C)OC(=O)CC[C@@H](C(=O)N1CCN(C(=O)OC(C)(C)C)CC1)n1cc(C(CO)NC(=O)OC(C)(C)C)nn1 (stereo partly drawn)	?	-0.3%	2	4%
COc1cc(-c2nnc(SCC3(c4ccc(Br)cc4)OCCO3)o2)cc(OC)c1OC	-9%	-2.5%	-8	4%
CCCN1CCN(C2CCCCC2NS(=O)(=O)c2ccccc2)CC1 (stereo not drawn)	-6%	-6.2%	/	-4%
CC(=O)N/C(=C\c1ccccc1)C(=O)OCc1ccccc1	-5%	-0.6%	/	-2%
CC(C)CC(=O)Nc1nnc(S(=O)(=O)N2CCCCCC2)s1	7%	1.9%	/	-4%&-49%
CCNc1ccc(C(=O)OCC(=O)N(Cc2ccccc2)C(C)(C)C)cc1[N+](=O)[O-]	6%	-7.2%	-9	-6%
CN1CCN(S(=O)(=O)c2ccc(NC(=O)C3CCCCC3)cc2)CC1	-11%	0.8%	-2	-13%
C[C@H](NC(=O)c1ccco1)C(=O)Nc1ccc(S(=O)(=O)N2CCCC2)cc1	1%	4.4%	3	-1%
O=C(Cc1sc(-c2ccccc2Cl)nc1-c1ccccc1)Nc1ccccc1	13%	-3.3%	9	-3%
O=C(Cc1ccccc1)NN1C(=O)C2C3C=CC(C3)C2C1=O (stereo not drawn)	7%	2.6%	3	-9%
N#C/C(=C\c1ccc(Sc2ccc(Cl)cc2)o1)c1nc2ccccc2[nH]1	?	?	-7	-6%
Cc1ccc(S(=O)(=O)Cn2nnnc2CN2CCOCC2)cc1	5%	-0.4%	-1	-4%
COC(=O)CCC(=O)NC1CC(C)(C)Cc2c1cnn2-c1ccccc1 (stereo not drawn)	3%	-0.4%	/	2%
Cc1ccc2c(c1)C=CC(C#N)N2C(=O)c1ccccc1 (stereo not drawn)	8%	1.9%	3	18%
O=C(O)c1ccc2c(c1)ncn2C1CCCCC1	18%	-0.2%	-10	-16%
COc1ccc(Nc2nc(Cl)c(C=O)s2)cc1	/	/	3	7%
O=C(CSc1nnc(NC(=O)c2cccc(Cl)c2)s1)NCC1CCCO1 (stereo not drawn)	2%	3.4%	/	-11%
Cc1ccc(OCCNS(=O)(=O)c2ccc(N3CCCC3=O)cc2)cc1C	-3%	9.3%	-20	12%
O=S(=O)(c1cccc2nonc12)N1CCN(c2cccc(Cl)c2)CC1	0%	0.1%	-6	0%

Compounds listed so far that have a tert-butyl group, in the order listed:
mol	Rango dissoc inh	Rango complex inh	GLA inh pH 4.5	miR-21 FLuc
CC(C)(C)OC(=O)CC[C@@H](C(=O)N1CCN(C(=O)OC(C)(C)C)CC1)n1cc(C(CO)NC(=O)OC(C)(C)C)nn1 (stereo partly drawn)	?	-0.3%	2	4%
CCNc1ccc(C(=O)OCC(=O)N(Cc2ccccc2)C(C)(C)C)cc1[N+](=O)[O-]	6%	-7.2%	-9	-6%

(more compounds)
mol	Rango dissoc inh	Rango complex inh	GLA inh pH 4.5	miR-21 FLuc
CCOC(=O)C1CCCN(S(=O)(=O)c2cn(C)c(=O)n(C)c2=O)C1 (stereo not drawn)	1%	-4.0%	0	1%
Cc1c(=O)n(OCc2ccccc2F)c2ccccc2[n+]1[O-]	-9%	-0.5%	-9	2%
CC(C)CN(C(=O)COC(=O)CNC(=O)c1ccccc1F)c1c(N)n(Cc2ccccc2)c(=O)[nH]c1=O	-3%	-0.6%	/	/
O=[N+]([O-])c1ccc(NCCNc2ccc([N+](=O)[O-])cc2)cc1	-2%	-2.6%	/	/
Cc1cc(/C=N/Nc2ccc([N+](=O)[O-])cn2)c(C)n1-c1ccccc1	-14%	?	-4	-19%
Nc1c(C(=O)OCC(=O)Nc2ccc(OC(F)F)cc2)[nH]c(=O)[nH]c1=O	3%	?	/	/
CCCOP(=O)(OCCC)C(Nc1ccc(C(C)C)cc1)c1ccc([N+](=O)[O-])cc1 (stereo not drawn)	-6%	-3.0%	2	12%
CCC(C)[C@H]1CN=C(N)N1CCc1cccc(F)c1 (stereo partly drawn)	9%	-2.6%	/	/
Cn1c(CN2CCOCC2)nnc1SCC(=O)Nc1cccc(C(F)(F)F)c1	-1%	-1.3%	/	0%
COc1cc2c(C(=O)NCCN(C)C)cn(CC(C)C)c(=O)c2cc1OC	6%	-0.1%	-5	0%
N/C(=N\OC(=O)C1CCCCC1)c1cccnc1	5%	2.9%	10	-33%
O=C(c1ccccc1)N1CCSC1=S	-10%	0.7%	7	-3%
Cc1ccc(/C=C(\C#N)C(=O)NC(C)C)o1	7%	-4.3%	-2	-17%
COC(=O)C1=CN(Cc2cccs2)C=C(C(=O)OC)C1c1cccc(O)c1	?	?	23	-2%
CCCn1c(SCC(=O)N2CCCc3ccccc32)nc2c1c(=O)n(C)c(=O)n2C	-1%	-4.4%	0	-11%
CC(=O)c1ccc(NC(=O)c2ccc3snnc3c2)cc1	-12%	-0.7%	/	-45%
CC(=O)c1cccc(NS(=O)(=O)c2ccc3c(c2)N(C(C)=O)CCO3)c1	0%	7.1%	/	10%
CCOC(=O)N1CCN(C(=O)c2cc3c(-c4ccc(Cl)cc4)nn(C)c3s2)CC1	8%	-0.6%	3	-1%
COc1ccc(Br)c(C(=O)NCCC(C)C)c1	4%	-0.7%	-3	-2%
CCN(CC)CCN1C(=O)C(=O)/C(=C(/O)c2ccc(OC(C)C)cc2)C1c1cccs1 (stereo not drawn)	1%	-2.8%	-7	-41%
CCCNC(=O)c1onc(CSc2ccc(Cl)cc2)c1C(=O)NCCC(C)C	-8%	4.6%	/	/
Cc1ccccc1NC(=O)CSCC(=O)Nc1ccccc1C	1%	-0.4%	-1	-3%
CCOC(=O)c1ccc(NC(=O)CC2SCCNC2=O)cc1 (stereo not drawn)	10%	-2.0%	8	-40%
COc1ccc(-c2csc(NC(C)c3nc4cc(Cl)c(N5CCCCC5)cc4n3CCCO)n2)cc1 (stereo not drawn)	-8%	5.4%	/	/
Cc1cccc(-c2ncc(CN3CCCC(CO)(Cc4cccc(Cl)c4)C3)cn2)c1 (stereo not drawn)	13%	-2.3%	-9	-5%
O=c1[nH][nH]c(=O)n1-c1ccccc1	4%	-1.9%	4	2%
CCOC(=O)c1c(NC(=O)CSc2nc3cc(Cl)ccc3c(=O)n2Cc2ccco2)sc(C(=O)N(C)C)c1C	-4%	0.3%	-15	-2%
O=C(NC(=S)N(CCO)Cc1ccccc1)c1ccc(F)cc1Cl	2%	-0.2%	/	-2%
CC(=O)N1CCN(c2nnc(-c3ccccc3)c3ccccc23)CC1	10%	-0.7%	/	-2%
